Screening data: PubChem, National Center for Advancing Translational Sciences (NCATS)
A488 autofl: A488 region autofluorescence; compound autofluorescence, A488 spectral region, dye equivalency; active compounds read high; max dye equivalency, M; hit rate 0.1% among 59,000; AID 591; active = above 10 nM dye equivalent; inconclusive = 1 to 10 nM; inactive = 1 nM or less; about half of its hits are not listed in these tables;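 also: highest value over a series up to 38 µM; compound alone in buffer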
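Compounds pin-transferred into 100 mM Tris buffer, pH 8.0, incubated 15 min at room temperature, then imaged with 480 nm excitation/540 nm emission filters. Fluorescence converted to Alexa 488 dye-equivalent concentration via an on-plate six-point A488 standard curve.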
Resorufin autofl: compound fluoresces in the resorufin spectral region. Compound fluorescence, resorufin region 547/598 nm, buffer; active compounds read high. max dye-equivalent concentration, M. hit rate 0.04% among 59,000. AID 588; active = above 10 nM dye equivalent; inconclusive = 1 to 10 nM; inactive = 1 nM or less; a few of its hits are not listed in these tables; also: highest value over a series up to 38 µM
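Compounds in 100 mM Tris buffer, pH 8.0, incubated 15 min at room temperature, then read with 547 nm excitation and 598 nm emission filters. Fluorescence was converted to dye-equivalent concentration using an on-plate six-point resorufin standard curve.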
AID923: qHTS Assay for Allosteric/Competitive Inhibitors of Caspase-1: Spectroscopic Profiling in AFC Spectral Region; compound fluorescence, AFC spectral region (405/520 nm); almost no hit is shown here; Potency, µM (titrated, usually from 57.5 µM), inactives show at the highest dose fluorescence increase, hits mostly activators; hit rate 1.1% among 75,000; active = well fitted activation curve with a large enough effect; inconclusive = small, poorly fitted or top-dose-only effect;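 also: potency is read from the fitted curve at half-maximal effect; 0% is about no effect; scaled to a free AFC standard on each plate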
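Compound autofluorescence profiled at 405 nm ex/520 nm em during kinetic caspase 1 run (50 nM enzyme, 5 uM Ac-WEHD-AFC, HEPES pH 7.5, 10 mM DTT). Titration up to 57 uM; baseline from regression intercept, normalized to AFC standard curve.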
TSHR agonist: activates the human thyroid stimulating hormone receptor; P16473; HEK293-CNG-TSHR cells (CNG channel as cAMP sensor), membrane potential dye, cAMP; Potency, µM (series often up to 57.1 µM), for the others: top-dose activation, actives largely listed as activators; hit rate 0.48% among 73,000; active = well fitted activation curve of enough size with the parental cells flat; inconclusive = any curve in the parental cells; inactive = parental cells flat and receptor cells flat or falling; also: potency is read from the fitted curve at half-maximal effect; % of control where 0% means no effect; weak receptor curves with flat parental cells got no call and are not listed
Target sequence (P16473 whole entry, looked up): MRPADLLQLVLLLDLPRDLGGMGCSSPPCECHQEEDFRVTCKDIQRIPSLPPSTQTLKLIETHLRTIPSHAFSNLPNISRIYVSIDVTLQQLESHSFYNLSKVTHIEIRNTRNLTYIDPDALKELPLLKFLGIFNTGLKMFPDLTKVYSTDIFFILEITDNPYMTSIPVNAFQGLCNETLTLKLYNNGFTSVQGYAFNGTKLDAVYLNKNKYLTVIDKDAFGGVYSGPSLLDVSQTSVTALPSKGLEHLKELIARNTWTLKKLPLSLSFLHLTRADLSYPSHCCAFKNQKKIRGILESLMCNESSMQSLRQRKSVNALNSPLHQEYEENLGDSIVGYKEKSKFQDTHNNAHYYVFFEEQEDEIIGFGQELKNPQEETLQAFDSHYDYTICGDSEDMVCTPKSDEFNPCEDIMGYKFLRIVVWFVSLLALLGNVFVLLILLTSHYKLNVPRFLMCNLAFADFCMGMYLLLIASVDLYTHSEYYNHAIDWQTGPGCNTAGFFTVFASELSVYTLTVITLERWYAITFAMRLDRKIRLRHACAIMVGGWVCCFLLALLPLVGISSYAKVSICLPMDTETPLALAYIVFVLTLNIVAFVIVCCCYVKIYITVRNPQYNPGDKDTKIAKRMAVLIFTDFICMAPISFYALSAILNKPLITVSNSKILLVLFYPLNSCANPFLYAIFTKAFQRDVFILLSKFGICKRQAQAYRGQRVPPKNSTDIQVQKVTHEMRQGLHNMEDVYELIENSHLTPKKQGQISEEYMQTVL
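HEK 293 cells stably expressing TSHR and a modified CNG channel, with CNG-only parental cells as counterscreen, were preloaded 60 min at room temperature with membrane potential dye containing 100 uM RO 20-1724. Compound exposure was 30 min, and depolarization was read as fluorescence at 590 nm.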
A647 fluor: compound autofluorescence in A647 spectral region; Compound fluorescence, A647 channel (570/671 nm), Tris buffer; max dye-equivalent concentration, M; 59,000 tested, under 10 active; AID 592; active means above 1 µM dye equivalent; inconclusive means 0.1 to 1 µM; inactive means 0.1 µM or less;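 also: values scaled relative to a standard on each plate; highest value over a series up to 38 µM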
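Compound fluorescence was measured in 100 mM Tris buffer, pH 8.0, after 15 min at room temperature, using 570 nm excitation and 671 nm emission filters. Signal was normalized to a per-plate Alexa 647 standard curve and expressed as dye-equivalent concentration at each compound concentration.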
Starred values were filed as active, the others as inactive; i = inactive; ? = inconclusive; . = not tested or not shown; [ ] = dose if it differs, or a comment. An excerpt; count on the stated rates, not on these rows.

Values run as follows: A488 autofl, Resorufin autofl, AID923, TSHR agonist, A647 fluor
> CC12C=C(/C=C/CCc3ccco3)C(C)(C1)C(CCc1ccco1)CC2=O (stereo not given)
→ ., ., 10.3%[11.5 µM], -5.0%[11.4 µM], .
> N=c1n(CCO)c2ccccc2n1Cc1ccc(Cl)cc1
→ i, i, -1.8%, 14.1%, 6e-09
> CCOc1cccc2cc(-c3csc(NC(=O)CCC(=O)N4CCN(C)CC4)n3)c(=O)oc12
→ i, i, 1.8%, 6.2%, 2.01e-08
> Cc1cc(C)c(S(=O)(=O)N(CC(=O)O)C2CCCCC2)c(C)c1
→ i, i, -1.7%, 0.6%, 3.48e-08
> Cc1cnnc2c1-c1nonc1CC2
→ i, i, 3.1%, -18.5%, 4.17e-08
> CCCC1(C(=O)OC)C=C2C(=C(c3ccccc3)C(=O)C2C)CN1 (stereo not given)
→ ., ., 7.8%, 14.9%, .
> COc1ccccc1-c1nnc(NC(=O)OCC(C)C)s1
→ i, i, -2.9%, 5.1%, 7.4e-09
> Cc1cc(N2CCN(C)CC2)nc2ccc(NC(=O)c3ccc4c(c3)OCO4)cc12
→ i, i, -0.1%, 0.8%[11.4 µM], 2.54e-08
> COCCNC(=O)[C@@]1(Cc2ccccc2)C=C[C@@H](C)N1C(C)=O
→ ., ., -1.5%, 1.7%, .
> C=CCn1c(SCC(=O)c2cccs2)nc2sc(C)cc2c1=O
→ i, i, -0.7%, ?, 1e-09
> COc1cccc(-c2csc(N3CCN(CC(=O)Nc4ccc5c(c4)OCO5)CC3)n2)c1
→ i, i, 2.8%, 1.8%, 2.7e-09
> COc1cc2c(cc1OC)CN(S(=O)(=O)c1ccc3c(c1)OCCO3)CC2
→ i, i, 0.5%, 10.8%, 1e-09
> COc1ccc(NC(=O)Nc2cccc(C)n2)cc1
→ ., ., -1.8%, ?, .
> COc1ccc(-n2c(SCC(N)=O)nnc2-c2ccccc2F)cc1
→ i, i, 0.5%, 0.3%, 2.95e-08
> Cc1ccc(N(CC(O)CN2CCCC2)S(=O)(=O)c2ccc(C)cc2)cc1 (stereo not given)
→ i, i, ., ., 1e-09
> COc1cccc(Cn2c(=O)c(C)nc3cnc(N4CCN(C)CC4)nc32)c1
→ i, i, 2.6%, 4.6%, 1e-09
> Cc1cc(C)nc(N(C#N)CC(=O)Nc2ccccc2)n1
→ i, i, -0.9%, ?, 1.8e-09
> O=C(NCc1ccco1)C1c2ccccc2Oc2ccccc21
→ ., ., 1.5%, 13.4%, .
> O=C(Nc1cccc(-c2cn3cccnc3n2)c1)c1ccc(Br)o1
→ i, i, -1.3%, 14.7%, 1.93e-08
> CC[C@H](C(=O)c1cccs1)C(O)(C(F)(F)F)C(F)(F)F
→ i, i, 2.5%[11.5 µM], ., 4.8e-09
> CCS(=O)(=O)c1nc2ccccc2n1CC(=O)N1CCCCC1
→ i, i, 0.3%, 4.0%, 9.9e-09
> COc1ccc2[nH]cc(C(=O)CN3CCN(C(=O)c4ccco4)CC3)c2c1
→ i, i, 2.0%, -0.5%, 2.97e-08
> O=C(c1ccncc1)N1CCC2(CC1)CN(c1ccccc1)C2
→ i, i, 4.1%, ?, 1.3e-09
> CCC(=O)N(Cc1cc(=O)[nH]c2ccccc12)C1CCCCC1
→ i, i, 1.8%, 4.3%, 4.24e-08
> COc1ccccc1-c1nccc(NCc2cccnc2)n1
→ i, i, 13.7%, 10.2%, 2.11e-08
> O=C(c1ccccc1NS(=O)(=O)c1ccc(Br)s1)N1CCOCC1
→ i, i, 1.7%, 25.2%, 1e-09
> Cc1cc(NC(=O)CCC(=O)N(CC(=O)NC2CCCC2)c2ccc3c(c2)OCCO3)no1
→ i, i, -0.8%, 0.7%, 6.4e-09
> CCNC(=O)CC1C(=O)N(c2ccc(F)cc2)C(=O)N1CCc1ccc(OC)cc1 (stereo not given)
→ i, i, -0.4%, 10.8%, 1.06e-08
> O=c1[nH]c2ccc(S(=O)(=O)N3CCN(C4CCCCC4)CC3)cc2[nH]c1=O
→ i, i, 6.4%, -1.0%, 1e-09
> CCc1nc2cc(C)nn2c2nc3ccccc3n12
→ i, i, 1.2%, 23.6%, 1.5e-09
> CC(=O)N1CCC[C@@]2(CCN(Cc3cc(C(F)(F)F)cc(C(F)(F)F)c3)C2)C1
→ i, i, -3.1%, ?, 1.01e-08
> O=C(Nc1nc2ccc(S(=O)(=O)N3CCCC3)cc2s1)C1CCCCC1
→ i, i, 0.1%, 6.4%, 7.7e-09
> CCOC(=O)c1c(CN2CCCCC2)n(C)c2cc(Br)c(OC)cc12
→ i, i, 0.0%, ?, 4.4e-09
> CC(NC(=O)CN1CCC(C(N)=O)CC1)c1ccccc1 (stereo not given)
→ i, i, 0.0%, -3.2%, 1e-09
> CN1CCN(C(CNS(=O)(=O)c2ccc(Cl)cc2)c2cccnc2)CC1 (stereo not given)
→ i, i, 0.6%, 7.0%, 1.53e-08
> CCOC(=O)c1cccnc1SC(CC)C(=O)N1CCOCC1 (stereo not given)
→ i, i, -0.8%, 2.4%, 1e-09
> CCOc1cc(-c2noc(CCC(=O)Nc3cccnc3)n2)ccc1OC
→ i, i, 13.4%, 1.8%, 1.27e-08
> Cc1cc(C)c(S(=O)(=O)Nc2ccccc2C(F)(F)F)c(C)c1
→ ., ., 0.2%, ?, .
> CCn1cc(-c2cc(C(F)(F)F)n3nc(C(=O)O)cc3n2)c(C)n1
→ i, i, 14.8%, -4.5%, 1e-09
> COC(=O)c1ccccc1NC(=O)CSc1nnnn1C1CCCCC1
→ i, i, 3.0%, 27.8%, 1.2e-08
> O=C(OCCN1CCCCC1)c1ccc(O)cc1
→ ., ., 2.2%, 6.1%[11.4 µM], .
> CC(=O)N1CCn2c3c(c(=O)c4cc(C)ccc42)CCC31 (stereo not given)
→ ., ., 10.4%, -22.5%, .
> CCOC(=O)C1C(=O)NC(N2CCOCC2)=NC1C(C)C (stereo not given)
→ i, i, -0.8%, 25.9%, 1.68e-08
> CCOc1ccccc1C(=O)Nc1nccs1
→ i, i, -2.1%, -0.7%, 2.87e-08
> COC(=O)c1ccc(OC(=O)C2CC(=O)N(c3ccc(C)cc3C)C2)cc1 (stereo not given)
→ i, i, -1.7%, 1.0%, 1.8e-09
> CCNC(=O)N1CCNC(=O)C1CC(=O)OC (stereo not given)
→ i, i, 0.8%, 2.3%, 6.4e-09
> O=C1[C@H]2[C@H]3[C@H](O)[C@H](O)C/C(=N/OCc4ccccc4)[C@H]3CC[C@@H]2C(=O)N1c1cccc(Oc2ccccc2)c1
→ ., ., 2.4%[11.5 µM], 5.7%[11.4 µM], .
> Cc1ccc(C)c(OCc2nc(-c3cccnc3)no2)c1
→ ., ., 1.1%, 6.7%, .
> CCCCn1c(CN2CCN(c3cccc(Cl)c3)CC2)nc2c1c(=O)n(C)c(=O)n2C
→ i, i, -1.4%, ?, 4.89e-08
> O=c1cc(N2CCOCC2)[nH]c(=O)n1-c1ccc(Cl)cc1
→ ., ., 2.9%, ?, .
> O=c1cc(-c2ccc(O)cc2O)oc2ccccc12
→ i, i, 5.9%, -7.1%, 1e-09
> COc1cccc(OC)c1C(=O)Nc1cc(Cl)ccc1N1CCOCC1
→ i, i, -1.1%, 11.2%, 3.11e-08
> Cc1c(CNC(=O)c2nn3c(c2Cl)NC(c2ccccc2)CC3C(F)(F)F)cnn1C (stereo not given)
→ i, i, -0.4%, 5.2%, 3.76e-08
> Cc1cc(C)n2nc(CC(=O)NC3CCCCCCC3)nc2n1
→ i, i, 0.1%, 6.1%, 3.31e-08
> COc1ccccc1C(=O)N1CCCN(C(=O)c2ccccc2OC)CC1
→ i, i, 0.5%, 3.6%, 1.6e-08
> CCOc1ccc(NC(=O)CSc2nnc(-c3ccccc3)n2N)cc1
→ i, i, 1.3%, -1.3%, 1e-09
> NC(=O)c1ccccc1NC(=O)CCCN1C(=O)CCC1=O
→ i, i, 1.0%, 3.4%, 1e-09
> CCN(CC)C(=O)Cn1c(=O)n(Cc2ccccc2Cl)c2c1c(=O)n(C)c(=O)n2C
→ i, i, -0.7%, 9.0%, 3.5e-09
> Cc1cc(Nc2ccccc2)n(-c2ccccc2)n1
→ i, i, 0.6%, 21.9%, 2.44e-08
> O=C(CS(=O)(=O)Cc1ccccc1)Nc1nc2c(s1)CCCC2
→ i, i, -0.9%, 11.1%, 1.91e-08

Next section.
Values run as follows: A488 autofl, Resorufin autofl, AID923, TSHR agonist, A647 fluor
> OC[C@@H]1O[C@@H](N2CCN([C@@H]3O[C@@H](CO)[C@@H](O)[C@H](O)[C@H]3O)CC2)[C@@H](O)[C@H](O)[C@H]1O
→ i, i, 2.4%[11.5 µM], -2.6%[11.4 µM], 1e-09
> NC(=O)c1nsnc1-c1ccccc1O
→ i, i, -0.3%, -5.6%[11.4 µM], 1.29e-08
> COC(=O)[C@@H]1C(O)[C@@H](C(=O)OC)[C@H](C)N(C)[C@@H]1C (stereo not given in full)
→ i, i, -1.4%[11.5 µM], -3.7%[11.4 µM], 2.53e-08
> CC1=C(C(=O)OC(C)C)C(c2ccccc2Cl)CC(=O)N1 (stereo not given)
→ i, i, -0.9%, 13.2%, 1.87e-08
> Cc1cc(NC(=O)C2CCN(S(=O)(=O)c3cnc[nH]3)CC2)ccc1Br
→ i, i, 0.9%, 1.1%, 5.2e-09
> COc1ccc(OC)c(S(=O)(=O)N2Cc3ccccc3CC2C(=O)O)c1 (stereo not given)
→ i, i, -2.8%, 4.3%, 3.35e-08
> Cc1noc(C)c1CSc1nnc(-c2cccnc2)n1C1CCCCC1C (stereo not given)
→ i, i, 0.1%, 4.1%, 1e-09
> CCCCCCP(=O)(O)c1ccccc1
→ ., ., 2.0%, 6.3%, .
> CC(C)OC(=O)c1cccnc1SCc1cc(=O)n2ccccc2n1
→ i, i, -1.2%, 16.0%, 1e-09
> Cc1ccc(-n2ncc3c(NCc4ccccc4)ncnc32)cc1
→ i, i, -0.4%, 12.2%, 1e-09
> NC(=O)c1cc(-c2ccccc2)nc(Oc2ccccc2)n1
→ i, i, ., ., 1.32e-08
> CS(=O)(=O)N1CCC2(CC1)CN(c1ncccn1)C2
→ i, i, 0.0%, -0.3%, 1e-09
> O=C(Nc1ccccc1)C1CC(=O)N(C2CCCCC2)C1 (stereo not given)
→ ., ., 1.2%, -2.9%, .
> O=C(Nc1ccc(N2CCN(C(=O)c3ccccc3)CC2)cc1)c1cc2ccccc2o1
→ i, i, -1.9%, -33.6%[inhibitor], 3.75e-08
> O=C(CSc1nc(-c2ccc(F)cc2)cs1)N1CCOCC1
→ i, i, -0.1%, -0.8%, 1e-09
> O=C(NCc1ccc2c(c1)OCO2)c1nn(-c2ccccc2)c(=O)c2ccccc12
→ i, i, 1.9%, ?, 5.2e-09
> Cc1noc(C)c1C(=O)N1CCC[C@@]2(CCN(Cc3ccc(C#N)cc3)C2)C1
→ i, i, 1.0%, ?, 1e-09
> OCCN(Cc1ccccc1)Cc1ccccc1Cl
→ i, i, 1.2%, 10.4%, 1e-09
> O=C(CCS(=O)(=O)c1cc(Br)cc2c1N(C(=O)C1CC1)CC2)NCC1CCCO1 (stereo not given)
→ i, i, -2.1%, 3.0%, 2.82e-08
> CCCOC(=O)C1=C(C)NC2=C(C(=O)CCC2)C1c1cccs1 (stereo not given)
→ i, i, 2.5%, 8.5%, 2.12e-08
> COc1ccc(NC(=O)C2CCN(C(=O)c3ccccc3)CC2)cc1OC
→ ., ., 0.1%, 4.5%, .
